ClpP mod: qHTS Assay for Activators of ClpP; ATP-dependent Clp protease proteolytic subunit (Bacillus subtilis (strain 168)), P80244; purified B. subtilis ClpP, FRET peptide cleavage, 20 min; Potency, µM (highest dose often 57.5 µM), inactives show top-dose activity change, negative = active; hit rate 1.9% among 340,000; AID 651965, 2013; active = well fitted falling curve with a large enough effect; inconclusive = small, poorly fitted or top-dose-only effect; inactive = no such curve, though single readings can be large or run the other way; further: potency means the concentration at half of the fitted maximal effect; the source files actives as falling curves though it sought activators and does not explain the sign; nearly all actives have a fitted effect of over 65% in size; many hits overshoot -100%
Target sequence (P80244 whole entry, looked up): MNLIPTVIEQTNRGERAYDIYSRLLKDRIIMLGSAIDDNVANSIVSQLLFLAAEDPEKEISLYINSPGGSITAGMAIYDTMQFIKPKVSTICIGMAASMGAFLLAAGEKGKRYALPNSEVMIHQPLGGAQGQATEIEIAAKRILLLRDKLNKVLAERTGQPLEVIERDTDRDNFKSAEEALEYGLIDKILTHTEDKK
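FRET quenching reversal measured ClpP activation: 10 microg/mL B. subtilis ClpP at pH 8 with the FRET-FV decapeptide, read at 430 nm after 320 nm excitation. The 20-min minus 0-min signal was scaled between DMSO/no-enzyme wells and ADEP (5.8 microM final).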
Menin-MLL FL inh: qHTS Assay for Inhibitors Targeting the Menin-MLL Interaction in MLL Related Leukemias: Competition With Fluorescein Labeled MLL-derived Peptide; Fluorescence polarization, fluorescein-MLL peptide displacement from menin; FP activity change, % at 61.4 µM; 290,000 tested, under 10 active; AID 1766, 2009; inconclusive = falling polarisation curve, or a change in total fluorescence; inactive = total fluorescence flat and polarisation flat or rising; no compound was filed as active; the % refers to the polarisation; negative = inhibition;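 further: % of control where 0% means no effect; inhibitors lower the polarisation; unlabelled MLL peptide was the positive control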
D2 agonist: Beta-Arrestin HTS for Positive Allosteric Modulators of the Human D2 Dopamine Receptor: Agonists; D(2) dopamine receptor (Homo sapiens), P14416; DiscoveRx PathHunter D2 beta-arrestin, luminescence, 90 min; 100% = 57 uM dopamine signal; activation, % (no concentration beside the values); hit rate 0.084% among 360,000; AID 624465, 2012; in the data active = activation above about 40%; inconclusive = about 15% to 40%; inactive = below about 15%; further: compound concentration not given in the record; the text of the record calls up to 30% inactive
Target sequence (P14416 whole entry, looked up): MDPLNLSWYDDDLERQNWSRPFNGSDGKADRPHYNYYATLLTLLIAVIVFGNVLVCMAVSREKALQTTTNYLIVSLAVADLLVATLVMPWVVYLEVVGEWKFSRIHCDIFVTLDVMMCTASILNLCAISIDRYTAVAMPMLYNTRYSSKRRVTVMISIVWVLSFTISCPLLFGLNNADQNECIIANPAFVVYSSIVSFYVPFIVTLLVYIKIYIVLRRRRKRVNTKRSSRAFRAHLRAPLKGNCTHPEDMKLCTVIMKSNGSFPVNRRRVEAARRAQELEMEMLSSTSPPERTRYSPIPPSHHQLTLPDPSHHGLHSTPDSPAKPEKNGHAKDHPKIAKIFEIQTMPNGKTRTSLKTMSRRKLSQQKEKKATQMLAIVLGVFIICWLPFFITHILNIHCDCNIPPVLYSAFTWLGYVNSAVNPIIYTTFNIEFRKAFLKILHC
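DiscoveRx PathHunter D2 beta-arrestin cells (2,100/well) attached overnight, then compound-stimulated 90 min at 37 C in HBSS/10 mM HEPES/0.1% Tween-20 buffer; beta-galactosidase complementation read by luminescence after 1 h at ambient temperature. Dopamine 57 uM final (EC100) as control.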
PINK1 expr mod: A Quantitative High throughput Screen to Identify Chemical Modulators of PINK1 Expression; PINK1 immunofluorescence, high-content cytometry, 24 h; Potency, µM (doses to about 76.6 µM), without a hit: top-dose activation (PINK1 increase), usual class: activators; hit rate 0.2% among 410,000; active = well fitted activation curve with a large enough effect; inconclusive = small, poorly fitted or top-dose-only effect; inactive = flat fitted curve, though single readings scatter; cell line not stated here;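 further: potency means the concentration at half of the fitted maximal effect; % of control where 0% means no effect; nearly all actives have a fitted effect of over 65% in size; a mitochondrial uncoupler was the plate control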
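Stable cell line treated 24 h with compounds at 5 concentrations (CCCP controls), then fixed and immunostained for PINK1 plus nuclear and cell stains; PINK1 immunofluorescence quantified by laser-scanning microplate cytometry.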
gsp antagonist: qHTS for Antagonists of gsp, the Etiologic Mutation Responsible for Fibrous Dysplasia/McCune-Albright Syndrome: qHTS; Potency, µM (series often up to 76.9 µM), without a hit: at the top dose activity change, negative = inhibition, hits mostly inhibitors; hit rate 0.4% among 340,000; gsp-mutant cells, cAMP HTRF, 30 min; control for the full effect not named in the record; AID 624288, 2012; active = falling curve of any shape with a large fitted effect; inconclusive = falling curve, mostly with a smaller effect; inactive = flat or rising curve; cell line not stated here;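 further: intracellular cAMP measured with PDE inhibitor Ro 20-1724 present during compound exposure; potency means the concentration at half of the fitted maximal effect; on the % scale 0 is the no-effect control and ±100 the full control effect; nearly all actives have a fitted effect of over 65% in size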
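Measurement of cellular cAMP by homogeneous time-resolved fluorescence following a 30 min compound exposure at 37C. The PDE inhibitor […] was present throughout; the assay buffer was DPBS with 0.05% BSA and 0.005% Tween 20.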
gsp agonist: qHTS for Agonist of gsp, the Etiologic Mutation Responsible for Fibrous Dysplasia/McCune-Albright Syndrome: qHTS; gsp mutant cells, cAMP HTRF, 30 min; control for the full effect not named in the record; hit rate 0.13% among 340,000; Potency, µM (series often up to 76.9 µM), for inactives: at the top dose activation (cAMP increase), most hits filed as activators; AID 624287, 2012; active = well fitted activation curve with a large enough effect; inconclusive = small, poorly fitted or top-dose-only effect, or another doubt; inactive = no such curve, though single readings can be large or run the other way; cell line not stated here;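 further: phosphodiesterase inhibitor Ro 20-1724 added with compounds to block cAMP breakdown; potency means the concentration at half of the fitted maximal effect; nearly all actives have a fitted effect of over 60% in size; about a fifth of the inactives were tested at one dose only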
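Cells in DMEM/10% FBS with G418 were pretreated with compounds in DMSO plus […] (300 uM stock) for 30 min at 37C. cAMP was measured by HTRF (cAMP-d2 plus anti-cAMP antibody-K) after 30 min at room temperature.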
Sfp inh: qHTS Assay for Inhibitors of Bacillus subtilis Sfp phosphopantetheinyl transferase (PPTase) | Biochemical Sfp PPTase activity, qHTS | hit rate 3.5% among 310,000 | AID 1490, 2009 | Potency, µM, for the others: max response, negative = inhibition, actives largely listed as inhibitors; active means well fitted inhibition curve with a large enough effect; inconclusive means small, poorly fitted or top-dose-only effect, or another doubt; inactive means no such curve, though single readings can be large or run the other way;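 further: the enzyme is Sfp with the accession as filed and its product quenches rhodamine fluorescence; potency means the concentration at half of the fitted maximal effect; 0% = enzyme reaction without inhibitor and -100% = no enzyme wells; top concentration of the series not given in the record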
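Step 1, compound plus 15 nM Sfp-PPTase, 15 min, room temperature. Step 2, add rhodamine-CoA (5 uM) and BHQ-2-YbbR (12.5 uM). Step 3, read 525/598 nm fluorescence at 0 and 30 min.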
* = called active by the depositor; ? = inconclusive; · = not tested or not shown; & = joins results of further samples; [ ] = remark or other dose.

SMILES	ClpP mod	Menin-MLL FL inh	D2 agonist	PINK1 expr mod	gsp antagonist	gsp agonist	Sfp inh
Cc1ccc(-c2nnc(OCCN3CCOCC3)c3ccccc23)cc1	1.8%	3.0	-4.1	-0.8%	6.6%	-24.7%	11.1%
COc1ccc(C2CC(c3cccs3)=NN2C(=O)CSc2nc3ccccc3s2)cc1 (stereo unspecified)	?	-1.2	0.3	-1.6%	-3.6%	?	12.9%
Cn1c(=O)c2c(SCC(=O)Nc3ccccc3F)nc(C3CC3)nc2n(C)c1=O	-5.6%	·	-0.4	4.8%	1.5%	17.9%	-3.0%
COc1ccc(/C=N/NC(=O)c2nnn(-c3nonc3N)c2-c2cccs2)c(OC)c1	98.6%	·	-1.7	2.4%	?	-65.8%[inhibitor]	9.3%
O=C(NCc1nc(-c2ccccc2)no1)c1ccc(Br)o1	1.0%	-2.4	2.9	1.3%[38.3 µM]	9.4%	9.8%	-0.4%
COc1cccc(N(CC(=O)NCCN2CCOCC2)S(=O)(=O)c2ccccc2)c1	17.8µM*	·	-4.3	4.6%	8.2%	-3.9%	·
COc1cccc(OC)c1C(=O)OCC(=O)N(c1ccccc1)C1CCCCC1	-5.5%	·	-0.7	-0.9%	-22.8%	9.2%	·
CC(=O)Nc1ccc(NC(=O)C(C)OC(=O)c2c(NC(C)=O)sc(C)c2C)cc1 (stereo unspecified)	-15.8%	·	-1.1	2.1%	9.6%	?	·
COc1ccccc1C(=O)NC1CCSc2ccccc21 (stereo unspecified)	0.0%	·	-6.7	-1.3%	-3.2%	0.9%	0.5%
Cc1ccc(SCCNC(=S)Nc2cc(C)ccc2C)cc1	-1.4%	2.0	-1.1	0.2%	-1.0%	-13.2%	13.0%
CN1CCN(c2cc(=O)n(Cc3ccc(F)cc3)c(=O)[nH]2)CC1	-2.6%	-0.2	-6.2	0.8%	-0.1%	-14.0%	3.9%
CSc1ccc(C(=O)C2CCCN(C(=O)c3csc(C(C)=O)c3)C2)cc1 (stereo unspecified)	·	-1.5	-4.3	1.0%	-12.7%	-12.0%[15.4 µM]	12.4%
CCOc1ncccc1C(=O)N1CCN(C(=O)c2ccccc2)CC1	-2.6%	-6.1	-6.9	-0.7%	-11.2%	-8.2%[15.4 µM]	19.7%
Cc1c(NC(=O)CN(c2ccccc2)S(=O)(=O)c2ccc(F)cc2)c(=O)n(-c2ccccc2)n1C	-0.9%	·	-2.8	4.4%	-0.2%	-81.8%[inhibitor]	6.7%
CC1CCCN(S(=O)(=O)c2ccc(NC(=O)C3CC(=O)N(c4ccccc4)C3)cc2)C1 (stereo unspecified)	·	-1.0	-1.9	0.7%	-19.6%	3.5%[15.4 µM]	2.8%
COC(=O)c1cc(=O)n(Cc2ccc(OC)c(OC)c2)c(=Nc2ccc(F)cc2)s1	-0.8%	0.3	0.5	0.0%	-6.5%	-17.0%	?
CS(=O)(=O)c1ccc2nc(NC(=O)CN3CCOCC3)sc2c1	·	-2.9	5.5	-0.5%	-3.4%	?	9.8%
CCOC(=O)C1(Cc2ccc(OC)cc2)CCN(C(=O)C2CC(=O)N(C3CC3)C2)CC1 (stereo unspecified)	-2.8%	-2.5	-8.3	1.6%	-0.6%	68.1%	7.9%
O=C(NC1CC1)C1CCN(C2CCN(C(=O)Cc3ccc(F)cc3)CC2)CC1	·	-1.6	0.5	0.4%	3.4%	?	5.5%
CC(C)CCOc1ccc(C2(C)NC(=O)N(CN3CCOCC3)C2=O)cc1 (stereo unspecified)	-19.4%	3.9	1.9	-0.2%	5.2%	3.5%	9.9%
CCOC(=O)C1=C(C)Nc2nnnn2C1c1ccc(OC)c(Br)c1 (stereo unspecified)	1.5%	3.5	2.3	2.4%	-8.0%	?	2.7%
COc1ccc(-c2nc(=S)[nH][nH]2)cc1OC	-9.8%	-1.2	-3.0	-0.3%	-3.0%	-89.9%[inhibitor]	56.2µM*
O=C1CC(N2CCC(c3nc4ccccc4s3)CC2)C(=O)N1Cc1ccccc1 (stereo unspecified)	1.3%	4.7	-2.7	·	35.5µM*	6.0%	9.3%
CCCCN(CC)CCCNC(=O)c1cc2c(-c3ccc(OC)c(OC)c3)nn(C)c2s1	-21.3%&-16.6%	4.6	6.8	3.7%&1.7%	2.0%	?	-7.8%
O=S(=O)(NCCc1csc(-c2cccnc2)n1)c1ccc(Cl)s1	-26.9%	3.6	3.2	3.5%	-20.4%	6.7%	9.4%
Oc1ccccc1/C=N/NC(=S)NCCc1ccccc1	?	-1.7	10.2	13.9%	-7.5%	?	11.8%
O=c1c([N+](=O)[O-])cccn1Cc1cccc(Cl)c1	1.6%	-1.8	1.4	-2.4%	7.2%	-3.0%	16.2%
CCOc1ccc(Nc2nc(N)nc(CN3CCN(c4ccccc4F)CC3)n2)cc1	·	2.4	8.5	-0.8%	-5.9%	-3.1%	5.2%
C/C(=C\C(=O)c1ccccc1)Nc1ccc(Br)c(Cl)c1	-0.4%	-9.5	1.2	-0.7%	18.9%	?	-8.8%
O=[N+]([O-])/C=C\c1ccc(N2CCCC2)c(F)c1	-2.2%	26.2	-5.5	3.4%	-7.3%	1.7%	?
Cc1cc(S(=O)(=O)NC2CCCCC2)ccc1OCC(=O)NCc1ccccn1	-2.5%	-1.0	0.9	-1.6%	-3.7%	-1.1%	-18.9%
CCn1c(C(C)NC(=O)c2ccccc2C)n[nH]c1=S (stereo unspecified)	0.3%	-2.0	-3.9	0.6%	4.7%	-32.1%[inhibitor]	15.0%
CCNS(=O)(=O)c1ccc(NC(=O)Nc2cc(C)ccc2OC)cc1	-4.6%	-1.2	-3.5	1.4%	-20.1%	?	-2.3%
COc1ccc(S(=O)(=O)N2CCSC2c2ccc(N)cc2)cc1 (stereo unspecified)	-0.9%	-0.1	-0.6	-1.5%[38.3 µM]	-4.0%	-22.2%	2.7%
CS(=O)(=O)N(CCC#N)Cc1ccco1	·	-0.5	-0.3	1.1%	8.9%	6.5%[15.4 µM]	18.1%
CCC1CCCCN1C(=O)c1sc2ncnc(N(CC)CC)c2c1C (stereo unspecified)	0.9%	1.0	1.8	8.7%	?	-20.0%	7.7%
CN(C)S(=O)(=O)c1ccc(N2CCN(S(=O)(=O)c3ccc(F)cc3)CC2)c(Cl)c1	-0.3%	-1.1	7.9	-1.6%[38.3 µM]	0.9%	-27.9%	9.0%
c1cc(-c2cc3nc(NCC4CC4)ccn3n2)ccc1OCCN1CCOCC1	4.0%	·	13.7	3.8%	·	·	·
CCn1c(SCC(=O)N2CCCC2)nc2ccccc21	2.2%	-2.4	-1.1	-0.5%	15.0%	?	13.7%
COc1ccc2nc(SCC(=O)Nc3ccccc3C#N)[nH]c2c1	-1.4%	1.1	0.0	0.0%	10.3%	-9.8%	15.0%
O=C1CC(c2ccccc2)Cc2nc3ncnn3cc21 (stereo unspecified)	18.0%	9.9	1.8	-3.7%[38.3 µM]	9.7%	15.7%	5.7%
O=C(CNC(=O)Cc1ccccc1)NCC(=O)N1CCN(C(c2ccccc2)c2ccccc2)CC1	-0.8%	-6.4	-0.3	0.5%	-9.8%	14.6%	3.1%
Cc1ccc(S(=O)(=O)Nc2cccc(C(=O)NCC(C)(C)N3CCOCC3)c2)cc1F	-2.7%	·	-1.6	0.8%	0.7%	?	·
COc1cc(NC(=O)CCn2c(=O)oc3ccccc32)cc(OC)c1OC	-0.9%	1.2	3.9	-0.4%&0.5%	3.8%	6.8%	19.0%
CC(C)(C)NC(=O)CN1C(=O)c2cccc3cccc1c23	-2.3%	·	-3.0	0.0%	·	-61.7%[inhibitor]	·
O=C(COc1cccc(Br)c1)N/N=C/C(=O)c1ccccc1	·	0.2	3.1	1.6%	-11.0%	-21.2%	-8.9%
OCC(CBr)(CBr)CBr	-1.3%	·	-4.9	-1.1%	-2.1%	·	·
CCCCCCN1C[C@H](O)[C@@H](n2cc(-c3ccc(F)cc3)nn2)C[C@@H]1c1ccc(C)cc1	-3.5%	·	-6.9	26.8%	·	-29.3%	·
CCCn1c(N)c(C(=O)CN2CCN(S(=O)(=O)c3cccc(Cl)c3)CC2)c(=O)[nH]c1=O	1.9%	·	-1.7	2.6%	-22.4%	-1.5%	·
Cc1ccc(C(C(=O)NCC2CCCO2)N(Cc2ccccc2)C(=O)c2ccc(-c3ccccc3)[nH]2)o1 (stereo unspecified)	?	9.4	0.2	1.4%	-26.7%	7.6%	-11.4%
O=C(COC(=O)/C=C/c1ccc(Cl)cc1)Nc1cccc(S(=O)(=O)NC2=NCCCCC2)c1	-2.2%	·	-0.5	-0.8%	-6.3%	?	·
CCc1ccc(-c2cnc3ccccc3n2)cc1NC(=O)CNC(=O)c1ccccc1	-0.3%	-6.1	-2.3	-1.1%	-12.1%	-5.5%	0.8%
COc1cccc(C(C)NC(=O)C2CCCO2)c1 (stereo unspecified)	1.2%	0.9	-0.1	-2.2%	-2.1%	8.8%[15.4 µM]	27.4%
CCCCN(C(=O)c1ccc([N+](=O)[O-])o1)c1c(N)n(CC(C)C)c(=O)[nH]c1=O	-8.8%	·	-0.1	-0.7%	-17.1%	1.8%	·
NC(=O)CC(NC(=O)Cc1cccc2ccccc12)c1ccc(NCCOc2ccccc2)c([N+](=O)[O-])c1 (stereo unspecified)	-2.4%	-0.1	-2.7	-1.4%	-1.9%	·	-27.1%
N#Cc1ccccc1COC(=O)c1cc(=O)c2ccccc2o1	·	0.4	-5.5	0.9%	5.2%	6.4%	16.8%
C/C(N)=C(/C#N)C(=O)COC(=O)CSc1ccccc1	-0.9%	-2.4	-0.2	-1.1%	-5.7%	-18.5%	-1.3%
